Vaccinia stage: blocks a specific stage of Vaccinia orthopoxvirus infection, primary screen, cell-based, single point; Vaccinia-infected cells, mCherry/Venus stage reporter fluorescence; hits give low values; some inactives read as strong as hits; 0.01% of 89,000 active; activity change (mCherry), % (test concentration not listed); AID 1053133, 2014;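 active = mCherry past -33% and 40 or more points under the early reporter, replicates agreeing; inconclusive = past -33% without that gap or agreement; tested in A549 cells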;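 also: scaled between vehicle wells and reference inhibitor wells; 23 nL library stock went into each well; one replicate is shown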
Vaccinia stage Venus: recorded beside Vaccinia stage, whose call it bears; activity change (Venus), %; measured here: Venus reporter, other viral stage;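 negative = less Venus signal; first of two replicates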
Active calls of the source: *; ? = inconclusive; . = not tested or not shown. An excerpt; rates above refer to the full screens.

1: CO[C@@H]1CN(C)C(=O)c2cc(NC(=O)CC(F)(F)F)ccc2OC[C@H](C)NC[C@@H]1C
2: CNC[C@H]1Oc2c(NS(=O)(=O)c3ccccc3)cccc2C(=O)N([C@H](C)CO)C[C@@H]1C
3: C[C@H](CO)N1C[C@H](C)[C@@H](CN(C)Cc2ccc(C(=O)O)cc2)Oc2ccc(NC(=O)c3ccncc3)cc2CC1=O
4: COc1ccc(S(=O)(=O)Nc2ccc3c(c2)CC(=O)N([C@H](C)CO)C[C@H](C)[C@@H](CN(C)Cc2ccc(C(=O)Nc4ccccc4N)cc2)O3)cc1
5: COc1ccccc1-c1ccc2c(c1)O[C@H](CN(C)C)[C@@H](C)CN([C@H](C)CO)S2(=O)=O
6: C[C@@H]1CN([C@H](C)CO)S(=O)(=O)c2ccc(C#Cc3ccccc3F)cc2O[C@H]1CN(C)C

assay / entry,1,2,3,4,5,6
Vaccinia stage,15,2,12,4,3,?
Vaccinia stage Venus,40,-5,8,4,-2,.

7: CN1CCN(C(=O)C2=C[C@@H](c3ccc(C(F)(F)F)cc3)C[C@@H](OCc3ccc(CO)cc3)O2)CC1
8: C[C@@H]1CN([C@H](C)CO)C(=O)c2cc(C#CCN(C)C)cnc2O[C@@H]1CN(C)C(=O)Nc1cccc(F)c1
9: CCCN1[C@H](C(=O)N(C)C)[C@@H](CO)[C@@H]2Cn3c(ccc(-c4ccccc4OC)c3=O)[C@@H]21
10: CO[C@H]1CN(C)C(=O)c2cc(NC(C)=O)ccc2OC[C@@H](C)N(C(=O)c2ccccc2)C[C@@H]1C
11: CC(C)NC(=O)N[C@H]1CC[C@@H](CC(=O)NCCN2CCCC2)O[C@@H]1CO
12: COc1ccccc1NC(=O)N(C)C[C@H]1OCc2ccccc2-c2c(n(C)c3ccccc23)C(=O)N([C@@H](C)CO)C[C@@H]1C

assay / entry,7,8,9,10,11,12
Vaccinia stage,-7,4,11,-9,16,?
Vaccinia stage Venus,-4,8,3,-2,10,.

13: CCCNC(=O)N1CC(=O)N2[C@@H](CO)[C@@H](c3ccc(C#Cc4cccc(F)c4)cc3)[C@@H]2C1
14: CN(C)Cc1cn(CC[C@H]2CC[C@H](NC(=O)Nc3ccc4c(c3)OCO4)[C@H](CO)O2)nn1
15: N#C[C@@H]1[C@H](c2ccccc2)[C@H](CO)N1C(=O)c1ccccc1F
16: C[C@H]1CN([C@@H](C)CO)C(=O)c2cccc(NC(=O)Nc3ccc(F)cc3)c2O[C@H]1CN(C)C(=O)Nc1ccc(F)cc1
17: CN1C(=O)c2cc(NC(=O)C3CCCC3)ccc2OC[C@H]2O[C@H](CC(=O)NCC3CC3)CC[C@@H]21
18: Cc1noc(C)c1NC(=O)Nc1ccc2c(c1)C(=O)N([C@H](C)CO)C[C@H](C)[C@@H](CN(C)S(=O)(=O)c1cccs1)OCCCC[C@H](C)O2

assay / entry,13,14,15,16,17,18
Vaccinia stage,0,-3,8,?,-4,12
Vaccinia stage Venus,-8,-6,7,.,-6,10

19: O=C(Nc1ccc(C(F)(F)F)cc1)N[C@@H]1CC[C@H](CC(=O)N2CCCCC2)O[C@H]1CO
20: O=C(Nc1ccccc1F)N1CCCCN2[C@H](CO)[C@@H](c3ccc(C4=CCCC4)cc3)[C@H]2C1
21: Cc1ccc(S(=O)(=O)N(C)C[C@H]2Oc3c(NC(=O)CCCCCC(=O)Nc4ccccc4N)cccc3C(=O)N([C@H](C)CO)C[C@@H]2C)cc1
22: C[C@H](CO)N1C[C@H](C)[C@@H](CN(C)C(=O)C2CCCCC2)Oc2ncc(-c3ccccc3F)cc2C1=O
23: CCCC(=O)Nc1ccc2c(c1)C(=O)N(C)C[C@H](OC)[C@@H](C)CN(CCc1ccccc1)[C@H](C)CO2
24: COc1ccc(NC(=O)N(C)C[C@@H]2OCCCC[C@H](C)Oc3ccc(NS(=O)(=O)c4ccc(Cl)cc4)cc3C(=O)N([C@H](C)CO)C[C@@H]2C)cc1

assay / entry,19,20,21,22,23,24
Vaccinia stage,5,-21,19,7,-24,-25
Vaccinia stage Venus,10,-20,7,0,-18,-23

Entries of single compounds as entered above. Order of screens: Vaccinia stage	Vaccinia stage Venus
CO[C@H]1CN(C)C(=O)c2cc(NC(C)=O)ccc2OC[C@@H](C)N(C(=O)c2ccccc2)C[C@@H]1C in the list: -9	-2
C[C@H](CO)N1C[C@H](C)[C@@H](CN(C)C(=O)C2CCCCC2)Oc2ncc(-c3ccccc3F)cc2C1=O in the list: 7	0

(continued)
25: COCC(=O)N1CCCCN2[C@H](CO)[C@@H](c3ccc(-c4ccc(C)cc4)cc3)[C@H]2C1
26: COc1ccc(S(=O)(=O)N(C)C[C@@H]2OCCCC[C@@H](C)Oc3ccc(NC(=O)NC4CCCCC4)cc3C(=O)N([C@H](C)CO)C[C@@H]2C)cc1
27: COc1cccc(C#Cc2ccc([C@@H]3[C@H](CO)N4C(=O)CN(C(=O)C5CC5)C[C@@H]34)cc2)c1
28: O=C(NCC1CCCCC1)[C@@H]1[C@@H](CO)[C@@H]2Cn3c(ccc(-c4cncnc4)c3=O)[C@H]1N2
29: C[C@@H]1CN([C@@H](C)CO)C(=O)Cc2cc(NC(=O)Nc3ccc(C(F)(F)F)cc3)ccc2O[C@H]1CN(C)CC1CC1
30: COc1ccc(C#Cc2cnc3c(c2)C(=O)N([C@H](C)CO)C[C@H](C)[C@H](CN(C)Cc2cccc(C(F)(F)F)c2)O3)cc1OC

assay / entry,25,26,27,28,29,30
Vaccinia stage,-3,39,-19,16,-3,-33
Vaccinia stage Venus,-11,12,-19,12,4,-24

Filtered by structure: the compounds so far containing a CF3 group (5)
1: CO[C@@H]1CN(C)C(=O)c2cc(NC(=O)CC(F)(F)F)ccc2OC[C@H](C)NC[C@@H]1C
7: CN1CCN(C(=O)C2=C[C@@H](c3ccc(C(F)(F)F)cc3)C[C@@H](OCc3ccc(CO)cc3)O2)CC1
19: O=C(Nc1ccc(C(F)(F)F)cc1)N[C@@H]1CC[C@H](CC(=O)N2CCCCC2)O[C@H]1CO
29: C[C@@H]1CN([C@@H](C)CO)C(=O)Cc2cc(NC(=O)Nc3ccc(C(F)(F)F)cc3)ccc2O[C@H]1CN(C)CC1CC1
30: COc1ccc(C#Cc2cnc3c(c2)C(=O)N([C@H](C)CO)C[C@H](C)[C@H](CN(C)Cc2cccc(C(F)(F)F)c2)O3)cc1OC

assay / entry,1,7,19,29,30
Vaccinia stage,15,-7,5,-3,-33
Vaccinia stage Venus,40,-4,10,4,-24

Continuation:
31: CO[C@H]1CN(C)C(=O)c2ccc(NC(=O)c3nc4ccccc4s3)cc2OC[C@H](C)N(Cc2cncnc2)C[C@H]1C
32: CC(C)NC(=O)Nc1ccc2c(c1)CC(=O)N([C@H](C)CO)C[C@@H](C)[C@H](CN(C)C(=O)NC(C)C)O2
33: O=C(O)[C@H]1[C@H](CO)[C@H]2Cn3c(ccc(-c4cccnc4)c3=O)[C@@H]1N2C(=O)Nc1cc(F)ccc1F
34: Cc1noc(C)c1S(=O)(=O)N(C)C[C@H]1OCCCC[C@H](C)Oc2ccc(NC(=O)C3CCCCC3)cc2C(=O)N([C@H](C)CO)C[C@@H]1C
35: CC(=O)N(C)C[C@H]1Oc2ncc(C#Cc3ccc(F)cc3)cc2C(=O)N([C@@H](C)CO)C[C@H]1C
36: C[C@@H]1CN([C@@H](C)CO)C(=O)c2cc(NC(=O)CCN3CCOCC3)ccc2O[C@@H]1CN(C)C(=O)Nc1ccc(F)cc1

assay / entry,31,32,33,34,35,36
Vaccinia stage,-28,0,-3,-11,-6,15
Vaccinia stage Venus,-20,1,5,-8,-11,10

37: CC(C)NC(=O)N(C)C[C@H]1Oc2c(NC(=O)C3CC3)cccc2C(=O)N([C@@H](C)CO)C[C@@H]1C
38: C[C@H](O)C#Cc1cnc2c(c1)C(=O)N([C@@H](C)CO)C[C@H](C)[C@H](CN(C)Cc1cncnc1)O2
39: Cc1noc(C)c1NC(=O)Nc1ccc2c(c1)C(=O)N([C@H](C)CO)C[C@@H](C)[C@H](CN(C)Cc1ccc3c(c1)OCO3)O2
40: CCCN(C)C[C@H]1Oc2cc(C#CCC(C)C)ccc2S(=O)(=O)N([C@H](C)CO)C[C@H]1C
41: C[C@H](CO)N1C[C@H](C)[C@@H](CN(C)S(=O)(=O)c2ccc(Cl)cc2)Oc2ccc(NC(=O)C3CCCCC3)cc2C1=O
42: C[C@@H]1CN([C@@H](C)CO)C(=O)CCCn2cc(nn2)CO[C@H]1CN(C)CC1CCCCC1

assay / entry,37,38,39,40,41,42
Vaccinia stage,2,3,-4,-31,-29,2
Vaccinia stage Venus,8,-3,-7,-15,-23,5

43: C[C@@H]1CN([C@H](C)CO)C(=O)c2cccc(NC(=O)Nc3ccccc3)c2O[C@H]1CN(C)S(=O)(=O)c1cn(C)cn1
44: CCCNC(=O)N(C)C[C@H]1Oc2ncc(C3=CCCCC3)cc2C(=O)N([C@@H](C)CO)C[C@@H]1C
45: C[C@@H]1CN([C@H](C)CO)C(=O)c2cccc(NC(=O)c3ccc(-c4nccs4)cc3)c2O[C@H]1CN(C)S(=O)(=O)c1ccc(F)cc1
46: C[C@@H]1CN([C@H](C)CO)S(=O)(=O)c2ccc(C#C[C@@H](C)O)cc2O[C@@H]1CN(C)C(=O)C1CC1
47: C[C@H]1CCCCO[C@@H](CN(C)C(=O)Nc2ccc(F)cc2)[C@@H](C)CN([C@@H](C)CO)C(=O)c2cc(NS(=O)(=O)c3ccccc3)ccc2O1
48: O=C(C[C@@H]1C[C@H]2c3cc(NC(=O)C4CCOCC4)ccc3O[C@H]2[C@@H](CO)O1)NCc1ccc2c(c1)OCO2
49: COc1cccc(-c2ccc3c(c2)O[C@H](CN(C)CC2CC2)[C@H](C)CN([C@@H](C)CO)S3(=O)=O)c1
50: C[C@@H]1CN([C@@H](C)CO)C(=O)CCCn2nncc2CO[C@@H]1CN(C)S(=O)(=O)c1ccc2ccccc2c1
51: C[C@@H]1CN([C@H](C)CO)C(=O)c2cc(NC(=O)C3CCCCC3)ccc2O[C@H]1CN(C)Cc1ccc(Cl)c(Cl)c1

assay / entry,43,44,45,46,47,48,49,50,51
Vaccinia stage,9,3,-19,25,-33,4,-14,-10,-10
Vaccinia stage Venus,6,9,-11,6,-30,-4,-9,-10,-2
